Screening data: PubChem BioAssay, ICCB-Longwood Screening Facility, Harvard Medical School
HCMV UL50-53 inh: cytomegalovirus nuclear egress complex inhibition; inhibition, % (concentration not given with the values); hit rate 0.15% among 190,000; HTRF UL50-UL53 interaction, normalized percent inhibition;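 active = both replicates at 50% or more, plus weaker picks with an unusually low signal ratio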;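 note: stock transfer was 100 nL into about 20 µL; 0% = negative control wells and 100% = wells with untagged competitor protein; inactives centre near -12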
Sa growth inh: inhibitors of Staphylococcus aureus growth at 42 °C; AID 720641; hit rate 0.53% among 170,000; relative growth, % (test concentration not listed); S. aureus RN4220 growth, OD600, 20 h; hits give low values;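 active = growth at 42 °C up to 50% and 20 or more points under that at 30 °C, or under 10% at both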;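 note: 300 nL library stock went into each well; scaled to the means of positive and negative controls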
GIV Gai3 FP: GIV-Galpha-i interaction inhibition; P08753; Galpha-i3/FITC-GIV peptide fluorescence polarization, 90 min; hits give low values; scaled: aluminum fluoride 0%, vehicle 100%; percent of control (FP), % (concentration not given with the values); hit rate 0.42% among 210,000; AID 1224905;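 active = replicate mean at 85% of control or lower, very high polarization wells dropped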;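 note: wells of about 15 µL received 100 nL stock; the first replicate is given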
Target sequence (P08753 whole entry, looked up): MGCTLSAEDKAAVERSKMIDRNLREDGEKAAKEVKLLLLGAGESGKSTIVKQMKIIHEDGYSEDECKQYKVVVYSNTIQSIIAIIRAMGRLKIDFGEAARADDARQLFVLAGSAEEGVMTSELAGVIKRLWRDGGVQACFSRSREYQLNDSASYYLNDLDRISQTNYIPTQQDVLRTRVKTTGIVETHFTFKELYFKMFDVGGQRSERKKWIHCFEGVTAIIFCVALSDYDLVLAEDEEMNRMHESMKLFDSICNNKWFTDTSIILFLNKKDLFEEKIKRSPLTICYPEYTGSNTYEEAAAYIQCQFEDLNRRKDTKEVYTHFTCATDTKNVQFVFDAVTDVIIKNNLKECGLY
Sa growth inh second temp: recorded beside Sa growth inh, whose call it bears; relative growth, %; measured here: growth at 30 °C;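 optical density after 20 h as mean of two plates; 100% = untreated growth and lower means inhibition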
* marks the source's active call; other numbers are inactive results; nt = no result given.

#1 COc1ccc(C2Nc3ccccc3C(=O)N2c2ccccc2)cc1Cn1nnc2ccccc21 (stereo unspecified)
#2 CNC(=O)n1cc(C)c(-c2cccs2)n1
#3 CCN(CC)CCn1c(=N)n(CC(O)COc2ccccc2C)c2ccccc21 (stereo unspecified)
#4 Cc1cccc(C)c1NC(=O)CNC(=O)CSc1nnc(-c2cccnc2)n1Cc1ccco1
#5 O=C(OCc1c(F)cccc1Cl)c1ccccc1N1CCCC1=O
#6 N#Cc1c2c(c(N3CCOCC3)[nH]c1=S)CCCC2
#7 COC(=O)c1c(-c2cccs2)csc1NC(=O)c1ccc(C(C)C)cc1
#8 COc1ccc(-c2cc(C(=O)Oc3ccc(Cl)cc3)c3ccccc3n2)cc1

Compound	1	2	3	4	5	6	7	8
HCMV UL50-53 inh	-24	-32	-23	4	-11	-12	-32	11
Sa growth inh	nt	91	83	92	81	110	108	104
Sa growth inh second temp	nt	85	78	100	97	100	83	88
GIV Gai3 FP	100	104	107	nt	nt	104	96	93

#9 COc1ccc(N2CCN(C(=O)c3cn(C)c4ccc(S(=O)(=O)N(C)C5CCCCC5)cc4c3=O)CC2)cc1
#10 CC(=O)NCc1ccc(C(=O)COC(=O)c2cc(-c3ccccc3)nn2-c2ccccc2)o1
#11 Cc1nc2nc3c(c(NCc4ccco4)n2n1)CCC3
#12 CCSc1nc(N)cc(=O)[nH]1
#13 Cc1cc(O)c(C(c2cccc(F)c2)N2CCN(c3ccccc3)CC2)c(=O)n1Cc1ccco1 (stereo unspecified)
#14 COc1ccc(CCNC(=O)c2ccc3c(c2)c(C)c(C)n3Cc2ccc(F)cc2)c(OC)c1OC
#15 N#CC(c1ccc(O)cc1)N1CCN(C(C#N)c2ccc(O)cc2)CC1 (stereo unspecified)
#16 Cc1cc(C(=O)Nc2ccccc2)c(-c2ccccc2)o1

Compound	9	10	11	12	13	14	15	16
HCMV UL50-53 inh	-27	-33	9	-4	nt	nt	7	-44
Sa growth inh	108	72	nt	114	86	92	93	85
Sa growth inh second temp	93	97	nt	83	86	95	93	92
GIV Gai3 FP	102	nt	105	103	102	103	109	nt

#17 CCOC(=O)c1cc2n(n1)CC(C)(C(=O)NCCC(C)C)N(c1ccc(F)cc1C)C2=O (stereo unspecified)
#18 Cc1ccc(CSc2nc3cccnc3n2Cc2cccc(Cl)c2)cc1
#19 CCOc1ccc(NC(=O)C(=O)NCCc2csc(-c3ccc(F)cc3)n2)cc1
#20 O=C(NCc1ccc2c(c1)OCO2)c1cccnc1
#21 Cc1cccc(CSc2nc3cccnc3n2Cc2ccc(C(=O)NCc3cccs3)cc2)c1
#22 C=C(NC(=O)C(=C)NC(=O)c1csc(C2=NC3c4csc(n4)C4NC(=O)c5csc(n5)C(C(C)(O)C(C)O)NC(=O)C5CSC(=N5)C(=CC)NC(=O)C(C(C)O)NC(=O)c5csc(n5)C3(CC2)NC(=O)C(C)NC(=O)C(=C)NC(=O)C(C)NC(=O)C(C(C)CC)NC2C=Cc3c(C(C)O)cc(nc3C2O)C(=O)OC4C)n1)C(N)=O (stereo unspecified)
#23 COc1ccc(C2c3c(n(C)c4ccccc34)C(=O)N2CC(=O)NCc2ccc(F)cc2)cc1 (stereo unspecified)
#24 Cc1cc(C=C2C(=O)N(C)C(=O)N(C)C2=O)c(C)n1-c1cc(C(=O)O)cc(C(=O)O)c1

Compound	17	18	19	20	21	22	23	24
HCMV UL50-53 inh	-22	-3	nt	19	nt	-43	-18	14
Sa growth inh	nt	nt	102	86	128	-1.0*	nt	nt
Sa growth inh second temp	nt	nt	73	88	108	-0.6*	nt	nt
GIV Gai3 FP	97	99	102	103	101	nt	100	100

#25 O=C(Nc1ccc(C(=O)N2CCN(c3cccc(Cl)c3)CC2)cc1)c1nsc2ccccc12
#26 CCOC(=O)C1CCCN(C(=O)c2cccc(C)c2)C1 (stereo unspecified)
#27 COc1cc2[nH]c(=S)n(C3CC3)c(=O)c2cc1OC
#28 C=CCNCc1ccc(-c2ccc(OC)c(Cl)c2)o1
#29 O=c1oc2cc(OCc3c(F)cccc3F)ccc2c2c1CCC2
#30 CN(C)CCn1c(=O)n(C)c(=O)c2[nH]cnc21
#31 NC(=O)Cc1cc(Br)sc1Br
#32 Clc1ccc(Cl)c(-c2ccc(CNCCCn3ccnc3)o2)c1

Compound	25	26	27	28	29	30	31	32
HCMV UL50-53 inh	nt	2	nt	-25	-13	-7	-5	0
Sa growth inh	102	94	82	88	101	80	104	nt
Sa growth inh second temp	81	89	91	86	90	75	76	nt
GIV Gai3 FP	104	nt	102	106	102	99	110	105

#33 CCOc1ccc(-n2c(SCC(=O)Nc3ccc4c(c3)OCCO4)nc3c([nH]c4ccccc43)c2=O)cc1
#34 Cc1nc(-c2ccncc2)ncc1-c1nsc(Nc2ccccc2)n1
#35 Brc1cccc(-c2nn3c(-c4cccnc4)nnc3s2)c1
#36 CSC(=S)N/N=C/c1ccccc1
#37 O=C(O)CC(NCc1ccco1)C(=O)Nc1ccc(Cl)cc1 (stereo unspecified)
#38 Cc1cccc(C(=O)Nc2ccccc2OCc2cc(=O)n3cc(C)ccc3n2)c1
#39 Cc1nc2cc(S(=O)(=O)N3CCC(C(=O)NC4CCCCC4C)CC3)ccc2n1C1CCCC1 (stereo unspecified)
#40 CCCCc1nnc2sc(NC(=O)COc3ccc(C)c(C)c3)nn12

Compound	33	34	35	36	37	38	39	40
HCMV UL50-53 inh	nt	-6	1	-25	4	nt	3	13
Sa growth inh	122	97	nt	50	94	76	86	103
Sa growth inh second temp	76	74	nt	29	101	88	97	101
GIV Gai3 FP	104	101	115	nt	107	98	107	103

#41 COc1ccc(S(=O)(=O)N(CCc2ccccc2)CC(N)=O)cc1
#42 CCCN(CCC)C(=O)CC(c1ccccc1)c1cc(C)ccc1O (stereo unspecified)
#43 O=C(c1cnn2c1NC(c1ccc(Br)cc1)CC2C(F)(F)F)N1CCN(C(c2ccccc2)c2ccccc2)CC1 (stereo unspecified)
#44 COc1ccc2c(c1)S(=O)(=O)c1ccccc1N2
#45 COc1ccc(CONS(=O)(=O)c2ccc(NC(C)=O)cc2)cc1Cl
#46 COc1ccc(-n2nnc3c(=O)n(Cc4ccc(C)cc4)cnc32)cc1
#47 Cc1nc(NCc2ccccc2)ncc1C(=O)O
#48 COc1ccc(NCC(O)Cn2nnnc2-c2ccccc2)cc1OC (stereo unspecified)

Compound	41	42	43	44	45	46	47	48
HCMV UL50-53 inh	-18	nt	-10	9	-12	-1	12	-11
Sa growth inh	99	93	nt	86	114	82	100	102
Sa growth inh second temp	91	80	nt	95	96	94	102	90
GIV Gai3 FP	102	101	94	nt	106	104	113	103

#49 C=C(C)CN1CCN(c2cc(-c3ccccc3)c(C#N)c3nc4ccccc4n23)CC1
#50 O=C(COc1ccccc1)NN=C1CCCCC1
#51 O=C(CC1SC(=O)NC1=O)Nc1ccc(NC(=O)CC2SC(=O)NC2=O)cc1 (stereo unspecified)
#52 O=C(NC1=NCCS1)C12CC3CC(C1)CC(C(=O)NC1=NCCS1)(C3)C2
#53 CCCS(=O)(=O)N1CCN(Cc2ccco2)CC1
#54 CCOc1ccc(N(C(=O)c2ccc(C)cc2)S(=O)(=O)c2ccc3c(c2)n(C)c(=O)n3C)cc1
#55 Cc1ccc(-n2c(SCC(N)=O)nc(O)c(C)c2=O)cc1
#56 Cc1c(CNCCCc2ccccc2)c(C(=O)O)c(C)n1Cc1ccc(Cl)cc1

Compound	49	50	51	52	53	54	55	56
HCMV UL50-53 inh	-18	13	-18	-3	nt	-2	-8	-25
Sa growth inh	100	100	nt	113	73	85	107	106
Sa growth inh second temp	92	95	nt	99	91	95	101	96
GIV Gai3 FP	113	115	100	104	105	100	108	104

Three entries drawn at random from those above, as already listed:
#2 CNC(=O)n1cc(C)c(-c2cccs2)n1
#26 CCOC(=O)C1CCCN(C(=O)c2cccc(C)c2)C1 (stereo unspecified)
#10 CC(=O)NCc1ccc(C(=O)COC(=O)c2cc(-c3ccccc3)nn2-c2ccccc2)o1

Compound	2	26	10
HCMV UL50-53 inh	-32	2	-33
Sa growth inh	91	94	72
Sa growth inh second temp	85	89	97
GIV Gai3 FP	104	nt	nt

Following part
#57 Cc1ccc2c(c1)c1c(c(=O)n(-c3ccccc3)c(=O)n1CC(=O)c1ccc(Cl)cc1)n2C
#58 COc1ccc(N2C(=O)c3ccccc3NC2c2ccc(OC)c(CSc3nc4ccccc4s3)c2)cc1 (stereo unspecified)
#59 Cc1ncn2cc(-c3ccc(Cl)cc3)[nH]c(=O)c12
#60 CC(C)CC(=O)Nc1ccc2nc(SCC(=O)N3CCc4ccccc43)sc2c1
#61 COc1cc(OC)c(NC(=O)c2cc3ccccc3cc2O)cc1Cl
#62 COc1ccc(C2(CNC(=O)C(=O)Nc3ccc(F)cc3)CCCC2)cc1OC
#63 COc1cc(C(=O)N2CCN(C(=O)COc3cccc(C)c3)CC2)cc(OC)c1OC
#64 Cn1nc(C(F)(F)F)cc1C(=O)O

Compound	57	58	59	60	61	62	63	64
HCMV UL50-53 inh	nt	-16	-6	12	-21	-10	13	3
Sa growth inh	77	nt	90	98	99	89	102	99
Sa growth inh second temp	77	nt	85	91	82	92	104	98
GIV Gai3 FP	114	102	101	102	nt	95	105	nt

#65 Cc1ccc2c(c1)-c1ncc(C(=O)c3ccccc3O)cc1CO2
#66 COc1ccc(/C=C/C(=O)N2CCCc3ccccc32)cc1OC
#67 COc1ccc(NC(=O)C2CCC(CNS(=O)(=O)c3cccc4nsnc34)CC2)c(OC)c1 (stereo unspecified)
#68 O=c1oc2ccccc2nc1/C=C(\O)c1cccs1
#69 CCOc1ccc(S(=O)(=O)N2CCN(Cc3ccc4c(c3)OCO4)CC2)c2ccccc12
#70 Cc1noc(C)c1S(=O)(=O)Nc1ccc2[nH]c(=O)oc2c1
#71 O=C(CN1C(=O)c2ccccc2C1=O)Oc1ccc(F)cc1
#72 Cc1ccc(NC(=O)COC(=O)c2ccccc2S(C)=O)cc1C (stereo unspecified)

Compound	65	66	67	68	69	70	71	72
HCMV UL50-53 inh	2	-79	-21	-24	1	6	-16	-29
Sa growth inh	99	97	105	88	103	nt	100	70
Sa growth inh second temp	97	71	89	78	104	nt	90	83
GIV Gai3 FP	109	nt	102	-69*	95	107	97	nt

#73 Cc1c(NC(=O)CN2C(=O)c3cccc4cccc2c34)c(=O)n(-c2ccccc2)n1C
#74 Cn1cc(C2CC(=O)N(c3ccc(Br)cc3)C2=O)c2ccccc21 (stereo unspecified)
#75 CCc1ccc(N2CCn3c2nc2c3c(=O)n(CC(=O)O)c(=O)n2C)cc1
#76 Cc1nc(=O)c(-c2ccccc2)c(C)n1CCc1cnc[nH]1
#77 CCOC(=O)c1ccc(NC(=O)C2CCCN(c3ncnc4onc(C)c34)C2)cc1 (stereo unspecified)
#78 O=S(=O)(NC1=NCCCN1)c1cc(C(F)(F)F)cc(C(F)(F)F)c1
#79 Cc1ccccc1Cn1c(=O)n(CCc2ccccc2)c(=O)c2sc3ccccc3c21
#80 COc1cccc(-c2cc(C(=O)N3CCc4ccccc4C3)[nH]n2)c1

Compound	73	74	75	76	77	78	79	80
HCMV UL50-53 inh	-52	nt	26	-26	nt	-11	5	15
Sa growth inh	101	86	nt	95	87	81	91	102
Sa growth inh second temp	74	86	nt	83	93	89	97	102
GIV Gai3 FP	101	105	102	nt	101	100	101	105

Molecules above with a COOH group:
#24 Cc1cc(C=C2C(=O)N(C)C(=O)N(C)C2=O)c(C)n1-c1cc(C(=O)O)cc(C(=O)O)c1
#37 O=C(O)CC(NCc1ccco1)C(=O)Nc1ccc(Cl)cc1 (stereo unspecified)
#47 Cc1nc(NCc2ccccc2)ncc1C(=O)O
#56 Cc1c(CNCCCc2ccccc2)c(C(=O)O)c(C)n1Cc1ccc(Cl)cc1
#64 Cn1nc(C(F)(F)F)cc1C(=O)O
#75 CCc1ccc(N2CCn3c2nc2c3c(=O)n(CC(=O)O)c(=O)n2C)cc1

Compound	24	37	47	56	64	75
HCMV UL50-53 inh	14	4	12	-25	3	26
Sa growth inh	nt	94	100	106	99	nt
Sa growth inh second temp	nt	101	102	96	98	nt
GIV Gai3 FP	100	107	113	104	nt	102
